Screens as filed in PubChem.
Ecoli growth = blocks Escherichia coli growth; 0.21% of 330,000 active; AID 1053175; OD600, 23 h; stronger effect = lower value; OD600 absorbance (concentration not given with the values);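 active means OD600 absorbance below the run mean of sample wells minus 3.6 SD, in any replicate, cut at about 0.56 in these data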;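 further: stock transfer was 300 nL into about 60 µL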
AF4-AF9 inh = MLL-AF4/AF9 protein interaction inhibition; inhibition, % at 10 µM; 0.47% of 350,000 active; AID 651704; AlphaScreen, biotin-AF4 peptide binding to FLAG-AF9; P42568;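 active means every replicate reaching a set inhibition limit, whatever the replicate mean, cut at about 25% in these data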;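 further: 0% = plate neutral control median and 100% = total signal loss; the record names both 10 and 1 µM as test concentration; the first replicate is given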
HNF4A DNA FP = change in binding of human HNF4 alpha to DNA | 0.3% of 360,000 active | activity change, % at 10 µM | P41235 | HNF4a-FITC DNA binding, fluorescence polarization, 1 h | AID 1224865; in the data active means activity change above about 30%, passing the limit was not always enough;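 further: controls were the assay level and a saturating level of protein; the project sought stronger binding though the title names inhibitors; some compounds called inactive have numbers as strong as hits; positive values seem to mean higher polarization but the record does not say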
Target sequence (P41235 whole entry, looked up): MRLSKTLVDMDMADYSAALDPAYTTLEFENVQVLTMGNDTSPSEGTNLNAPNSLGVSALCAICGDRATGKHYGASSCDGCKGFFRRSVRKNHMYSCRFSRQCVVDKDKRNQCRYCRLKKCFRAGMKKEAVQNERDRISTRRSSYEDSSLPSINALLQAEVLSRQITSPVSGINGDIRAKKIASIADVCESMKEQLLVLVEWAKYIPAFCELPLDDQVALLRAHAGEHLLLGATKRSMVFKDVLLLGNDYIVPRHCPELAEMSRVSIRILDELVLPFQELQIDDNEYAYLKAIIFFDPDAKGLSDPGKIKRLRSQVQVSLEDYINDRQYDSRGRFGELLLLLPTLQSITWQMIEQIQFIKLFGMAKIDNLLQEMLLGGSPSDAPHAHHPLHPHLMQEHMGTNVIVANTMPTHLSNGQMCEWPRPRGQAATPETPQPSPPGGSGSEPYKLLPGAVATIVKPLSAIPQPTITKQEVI
FGF22 binding = binders of recombinant human FGF22 by thermal shift; SYPRO orange fluorescence; percent of sucrose octasulfate shift, DMSO zero; Q9HCT0; calls only at 9.99 µM; 1.5% of 340,000 active;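 active means melting point raised past a set limit in the mean and every replicate; three in four hits are not shown here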
Target sequence (Q9HCT0 whole entry, looked up): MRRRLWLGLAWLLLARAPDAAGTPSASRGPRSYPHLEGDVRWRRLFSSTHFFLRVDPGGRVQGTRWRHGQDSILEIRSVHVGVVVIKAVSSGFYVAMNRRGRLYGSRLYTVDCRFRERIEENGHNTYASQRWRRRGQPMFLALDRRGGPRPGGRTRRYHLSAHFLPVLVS
rRNA inh HTS = selective bacterial rRNA inhibition in E. coli. E. coli WT GFP vs humanized-ribosome RFP mutants, fluorescence, 24 h; stronger effect = lower value; DMSO median 0, no signal -100. GFP signal change (wild-type ribosome), % (concentration not given with the values). 1.6% of 350,000 active;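 active means significant combined selectivity score with lowered wild-type GFP, culture density cut under 30%, mutant RFP and density less affected; inactive means any of these conditions unmet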; further: one replicate is shown; some compounds called inactive have numbers as strong as hits
ALR H2O2 inh = inhibitors of human sulfhydryl oxidase ALR | purified ALR, DTT oxidation, H2O2 HRP-luminol luminescence | P55789 | 3.8% of 290,000 active | inhibition, % (test concentration not listed);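 active means mean and each replicate at 75% or more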;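 further: stock transfer was 7.5 nL into about 7.5 µL; 0% = neutral wells and 100% = wells with inactivated enzyme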
Target sequence (P55789 whole entry, looked up): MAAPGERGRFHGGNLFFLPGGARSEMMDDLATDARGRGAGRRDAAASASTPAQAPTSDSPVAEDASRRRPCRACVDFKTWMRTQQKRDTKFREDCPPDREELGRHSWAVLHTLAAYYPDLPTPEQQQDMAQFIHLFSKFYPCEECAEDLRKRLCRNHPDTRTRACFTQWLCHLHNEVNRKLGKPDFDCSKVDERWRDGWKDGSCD
Vif TR-FRET = HIV-1 Vif–A3G interaction blockers – biochemical, TR-FRET, GST-Vif 1-94, biotin-A3G peptide, dose response retest, primary screen (AID 1117319); one-dose inhibition, %; IC50 in µM for titrated hits; TR-FRET GST-Vif / biotin-A3G peptide binding; higher % means a stronger effect; test concentration not given here; strong numbers were not always called active; 0.57% of 260,000 active;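 active means above the screen mean plus three standard deviations and confirmed in dose response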;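 further: Vif residues 1-94 fused to GST binding biotinylated APOBEC3G peptide 110-148; 0% = full assay without inhibitor and 100% = GST in place of GST-Vif; retest series ran down from 100 µM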
rRNA inh HTS OD600 = second read-out of rRNA inh HTS, no call of its own (marks repeat the call); OD600 change, %; measured here: OD600 growth;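 optical density of the mix in the first replicate; 0 = DMSO median and -100 = no signal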
rRNA inh HTS RFP = second read-out of rRNA inh HTS, no call of its own (marks repeat the call); RFP signal change, %; measured here: RFP humanized mutant strains;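 first replicate; 0 = DMSO median and -100 = no signal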
An asterisk follows results filed as active; i = inactive; · = no result given. A portion of the library; the hit share may differ from the screen's.

SMILES	Ecoli growth	AF4-AF9 inh	HNF4A DNA FP	FGF22 binding	rRNA inh HTS	rRNA inh HTS OD600	rRNA inh HTS RFP	ALR H2O2 inh	Vif TR-FRET
Cc1cccc(NC(=O)CN2CCN(C(=O)CN3C(=O)NC4(CCCCC4C)C3=O)CC2)c1C (configuration not stated)	0.71	12	1.3	i	10	13	-4.7	·	·
O=C1NC[C@H](CCCCN2CCN(CCc3ccccc3)C(=O)C2=O)N(CCc2ccc(O)cc2)C1=O	·	0.9	1.5	i	17	7	-1.0	·	·
O=C(CN1CCCCC1)Nc1cc(S(=O)(=O)N2CCOCC2)ccc1N1CCCC1	0.69	-13	-0.1	i	10	17	0.5	0	-5%
Cc1n[nH]c(C)c1S(=O)(=O)N(CC(=O)NC1CCCC1)c1ccc(C(C)C)cc1	0.74	1.3	-3.0	i	-11	-25	-6.2	81*	2%
COc1ccc(S(=O)(=O)N(C)C)cc1NC(=O)Cc1ccc(S(=O)(=O)N2CCOCC2)s1	0.66	1.3	-4.1	i	0	2	-2.9	·	5%
O=C(CSc1nnc2c(n1)[nH]c1ccccc12)NCc1ccccc1F	0.7	-0.7	3.1	i	6	3	-0.9	-2	-4%
CC(Oc1ccc(Cl)cc1)C(=O)Nc1sccc1C(N)=O (configuration not stated)	0.73	-0.7	5.3	i	-30	-54	-2.1	3	24%
CCCC(C)NC(=O)COc1ccc(S(=O)(=O)N2CCCC2)cc1 (configuration not stated)	0.68	-2.1	0.7	i	2	-11	-1.1	-3	8%
CCOC(=O)c1ccc2c(c1)NCc1cccc(OC)c1O2	·	4.3	-3.2	i	-15	3	-0.4	1	·
CCC(=O)N1C[C@H](C)[C@@H](OC)CN(C)C(=O)c2ccc(NC(=O)Nc3ccccc3)cc2OC[C@@H]1C	·	-0.1	·	i	-3	-5	0.3	·	·
NS(=O)(=O)c1ccc(CCNC(=S)Nc2ccccc2)cc1	0.71	·	-3.2	·	·	·	·	16	·
Cc1cc(N2CCN(c3ccccc3)CC2)nc(-n2nc(C)cc2C)n1	0.66	·	2.6	·	·	·	·	65	1%
CN(C)c1ccc(O)c2c1CC1CC3C(N(C)C)C(=O)C(C(N)=O)=C(O)[C@@]3(O)C(=O)C1=C2O (some centres not stated)	0.069*	1.8	-0.3	i	-60	-72	-16	·	·
CO[C@@H]1CN(C)C(=O)c2cc(NS(=O)(=O)c3cccc(F)c3)ccc2OC[C@H](C)N(Cc2cc(F)ccc2F)C[C@@H]1C	·	-11	·	i	-3	-10	8.1	·	·
Cc1cc(C)c2sc(N(CCCN(C)C)C(=O)c3ccc(S(=O)(=O)N(C)C4CCCCC4)cc3)nc2c1	0.6	14	-0.8	i	-1	1	-1.6	-23	0%
Cc1ccc2c(CC(=O)N3CCN(S(=O)(=O)c4cccs4)CC3)coc2c1	0.8	·	-4.0	·	·	·	·	-1	-4%
CCOC(=O)c1cnc2ccc(OCC)cc2c1N1CCN(c2ccccc2OC)CC1	0.74	·	0.9	·	·	·	·	·	3%
Cc1ccc(NC(=O)C2CC(=O)N/C(=N/N=C/c3ccco3)S2)cc1C (configuration not stated)	·	-2.7	0.8	i	·	·	·	3	16%
COCc1cc(C)nc2sc(C(=O)Nc3ccccc3F)c(N)c12	0.63	-3.6	-1.8	i	4	0	0.3	1	-3%
COc1ccc(-c2cn3c(C)c(C(=O)Nc4cccc(C)n4)sc3n2)cc1	0.7	-15	11	i	-30*	-18*	0.0*	4	20%
CCOc1cc(C(c2c(C)[nH][nH]c2=O)c2c(C)[nH][nH]c2=O)ccc1OS(=O)(=O)c1ccccc1	0.75	·	1.1	·	·	·	·	13	8%
COc1ccc(NC(=O)c2nn(C)cc2[N+](=O)[O-])cc1	0.59	-4.6	2.9	i	5	7	0.7	-8	-10%
O=[N+]([O-])c1ccccc1S(=O)(=O)NCCc1ccncc1	0.7	-1.4	-0.5	i	2	6	-0.1	-4	24%
COc1ccc(OC)c(C(=O)NC(CC(N)=O)c2ccc(NC(C)C)c([N+](=O)[O-])c2)c1 (configuration not stated)	0.72	6.9	-1.2	i	1	4	7.9	-20	·
CC(=O)Nc1ccc(S(=O)(=O)NCc2nc(-c3ccc(C)cc3)no2)cc1	0.72	-4.2	-2.7	i	-10	-10	4.5	3	·
Cc1onc(-c2ccccc2)c1C(=O)Nc1cccc(S(=O)(=O)NC2=NCCC2)c1	0.63	1.3	-2.1	i	0	7	-0.6	-1	9%
COC(=O)CN1C(c2ccc(Cl)cc2)=Nc2ccc(Cl)cc2C1c1ccccc1 (configuration not stated)	0.72	·	2.6	·	·	·	·	-84	16%
CCOC(CNc1ncnc2sc(-c3ccccc3)cc12)OCC	0.67	-0.3	5.9	i	-15	-35	-2.6	97*	-4%
O=C(O)c1ccc(CNC(=O)c2ccc(S(=O)(=O)N3CCCCC3)cc2)cc1	0.68	-3.8	0.9	i	1	9	-2.9	-3	25%
COc1ccccc1S(=O)(=O)N[C@@H]1CC[C@@H](CCNC(=O)C2CCC2)O[C@H]1CO	·	-18	·	i	0	-2	-0.8	·	·
Cc1cc(=O)n2[nH]c(-c3ccc(F)cc3)nc2n1	0.66	·	-0.9	·	·	·	·	4	28%
COc1nccnc1NS(=O)(=O)c1ccc(NCc2cc(Br)ccc2O)cc1	0.7	-6.0	0.3	i	-23	-46	12	22	·
Cc1ccc(NC(=O)CCC(C(=O)O)N2C(=O)c3ccccc3C2=O)cc1 (configuration not stated)	0.7	·	0.9	·	·	·	·	-5	2%
O=C(O)c1cc(O)c2c(c1)[C@@H]([C@H]1c3cc(C(=O)O)cc(O)c3C(=O)c3c(O[C@@H]4O[C@H](CO)[C@@H](O)[C@H](O)[C@H]4O)cccc31)c1cccc(OC3O[C@H](CO)[C@@H](O)[C@H](O)[C@H]3O)c1C2=O (some centres not stated)	·	2.7	-87	i	·	·	·	-13	·
C[C@@H]1CN(Cc2nc(-c3ccc(Cl)cc3)no2)C[C@H](C)O1	0.69	-0.8	3.5	i	13	1	2.0	3	·
O=C(CN1CCOCC1)Nc1nc(-c2ccccc2)cs1	0.63	-1.0	-0.1	i	8	7	-1.5	·	·

Laid out differently: entries from further up
Cc1onc(-c2ccccc2)c1C(=O)Nc1cccc(S(=O)(=O)NC2=NCCC2)c1
  Ecoli growth: 0.63
  AF4-AF9 inh: 1.3
  HNF4A DNA FP: -2.1
  FGF22 binding: i
  rRNA inh HTS: 0
  rRNA inh HTS OD600: 7
  rRNA inh HTS RFP: -0.6
  ALR H2O2 inh: -1
  Vif TR-FRET: 9%

CCOC(CNc1ncnc2sc(-c3ccccc3)cc12)OCC
  Ecoli growth: 0.67
  AF4-AF9 inh: -0.3
  HNF4A DNA FP: 5.9
  FGF22 binding: i
  rRNA inh HTS: -15
  rRNA inh HTS OD600: -35
  rRNA inh HTS RFP: -2.6
  ALR H2O2 inh: 97*
  Vif TR-FRET: -4%

COc1nccnc1NS(=O)(=O)c1ccc(NCc2cc(Br)ccc2O)cc1
  Ecoli growth: 0.7
  AF4-AF9 inh: -6.0
  HNF4A DNA FP: 0.3
  FGF22 binding: i
  rRNA inh HTS: -23
  rRNA inh HTS OD600: -46
  rRNA inh HTS RFP: 12
  ALR H2O2 inh: 22
  Vif TR-FRET: ·

Cc1ccc(NC(=O)CCC(C(=O)O)N2C(=O)c3ccccc3C2=O)cc1 (configuration not stated)
  Ecoli growth: 0.7
  AF4-AF9 inh: ·
  HNF4A DNA FP: 0.9
  FGF22 binding: ·
  rRNA inh HTS: ·
  rRNA inh HTS OD600: ·
  rRNA inh HTS RFP: ·
  ALR H2O2 inh: -5
  Vif TR-FRET: 2%

(listing goes on)
SMILES	Ecoli growth	AF4-AF9 inh	HNF4A DNA FP	FGF22 binding	rRNA inh HTS	rRNA inh HTS OD600	rRNA inh HTS RFP	ALR H2O2 inh	Vif TR-FRET
CC(C)Oc1ccc(CN2CCC(n3nccc3NC(=O)c3cccnc3)CC2)cc1	0.66	10	1.6	i	10	16	0.5	-2	·
COc1ccc(S(=O)(=O)N[C@@H]2C=C[C@H](CC(=O)NCc3ccccc3F)O[C@@H]2CO)cc1	·	-13	·	i	-2	-5	-0.4	·	·
C=CCNC(=O)COc1ccc(S(=O)(=O)Nc2ccc(OCC)cc2)cc1	0.69	·	2.8	·	·	·	·	-22	·
COC(=O)C1=NNC2(c3ccc(Cl)cc3)C(=O)N(c3ccc(Cl)cc3)C(=O)C12 (configuration not stated)	0.72	·	5.8	·	·	·	·	·	-4%
C[C@H](CO)N1C[C@H](C)[C@@H](CN(C)S(C)(=O)=O)Oc2c(NC(=O)NC3CCCCC3)cccc2C1=O	·	-0.7	·	i	2	1	-4.3	·	·
CSc1nc2nc3c(c(=O)n2[nH]1)CN(Cc1ccccc1)CC3	0.67	·	-0.9	·	·	·	·	-8	25%
O=C(Nc1ccccc1)c1ccc(NCc2cccnc2)c(S(=O)(=O)N2CCOCC2)c1	0.74	·	-3.7	·	·	·	·	-4	-11%
O=C(C[C@H]1C/C=C\CC[C@H](Cc2ccc(F)cc2)C(=O)O[C@@H](c2ccccc2)CNC1=O)N[C@H](CO)Cc1ccccc1	·	1.4	1.5	i	6	16	9.4	0	·
COc1ccc(CNC(=O)[C@H](C)NC(=O)N2CCn3c2nc2ccccc23)cc1	0.69	-1.5	-3.9	i	5	9	1.2	-2	·
CC(=O)N(CCC(Cc1ccccc1)c1ccc2c(c1)OCO2)Cc1ccccc1F (configuration not stated)	0.72	·	-4.4	·	·	·	·	-15	4%
COC(=O)c1c(-c2cccs2)csc1NC(=O)CN1CCOCC1	0.69	·	1.0	·	·	·	·	5	-4%
CCOC(=O)CSCc1csc(CC(=O)Nc2ccccc2C)n1	0.72	-0.5	-0.8	i	8	8	3.2	-13	-3%
C[C@@H](N)C(=O)NC[C@H]1O[C@@H](n2cnc3c(N)ncnc32)[C@H](O)[C@@H]1O	0.71	0.4	-0.4	i	10	10	1.4	·	·
O[C@H]1CN(Cc2cccs2)[C@@H](c2ccc(Cl)cc2)C[C@@H]1n1cc(C2CC2)nn1	·	-1.8	-0.2	·	-1	4	5.4	·	-2%
Cn1c(=O)[nH]c(=O)c2c1nc(Br)n2CCOc1ccccc1	0.66	·	2.6	·	·	·	·	4	-5%
C[C@H]1CN([C@@H](C)CO)C(=O)c2cc(-c3ccncc3)cnc2O[C@H]1CN(C)S(=O)(=O)c1ccccc1	·	-6.2	·	i	1	-3	-2.9	·	·
O=C(NCc1ccccc1)c1ccc(N2C(=O)C3CCCCC3C2=O)cc1 (configuration not stated)	0.72	·	-1.1	·	·	·	·	13	·
C[C@@H]1CN([C@@H](C)CO)C(=O)c2cccc(N(C)C)c2O[C@@H]1CN(C)C(=O)Nc1ccccc1	·	-2.9	·	i	5	5	-0.6	·	·
O=[N+]([O-])c1cccc(C(=S)N2CCN(c3ccccc3F)CC2)c1	0.69	14	-1.3	i	-9	-11	-0.3	4	5%
COc1cccc(C2CC(=O)N3CN(c4ccccc4F)CSC3=C2C#N)c1 (configuration not stated)	0.76	3.1	3.6	i	7	-2	-1.6	-27	18%
COc1cccc(NC(=O)CSc2ncnc3c2cnn3Cc2ccccc2)c1	0.68	·	5.7	·	·	·	·	90*	-3%
COC(=O)c1c(NC(=O)C2CC2)sc2c1CCN(C(C)=O)C2	0.74	-4.4	4.5	i	-1	-3	-4.2	-3	-1%
Cc1cccc(C(CC(=O)O)NC(=O)C(F)(F)F)c1 (configuration not stated)	0.66	-1.5	2.5	·	7	9	0.4	-1	-2%
O=C(O)c1cc(=O)[nH]c2ccccc12	·	-1.1	2.9	i	7	2	-6.7	·	·
CCCCOCCCNC(=O)C[C@@H]1C[C@@]2(C(=O)OCC)CCCC=C2N(CCC2=CCCCC2)C1=O	·	-2.5	1.4	i	3	-12	7.8	·	·
